NPYLR7 ag: agonists of mosquito NPYLR7 receptor, primary screen, cell-based, Aedes aegypti, calcium fluorescence, mosquito biting behavior; HEK293T NPYLR7/Galpha15, GCaMP6s calcium fluorescence; activation, % at 10 µM; actives 0.15% (n = 270,000); in the data active means activation above about 40%;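 further: 0% = vehicle and 100% = reference agonist at the receptor; some compounds past the cut are filed as inactive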
NPYLR7 ag max-min: recorded beside NPYLR7 ag, whose call it bears; activation, %; measured here: Max-Min RFU normalised activation; some inactives read as strong as hits;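 span of the calcium signal over five minutes; 0% = vehicle and 100% = native peptide agonist; compound fluorescence can raise it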
* hit, by the source's call; & = joins results of further samples. A portion of the library, so the mix of outcomes need not match the whole.

Each structure is followed by: NPYLR7 ag, NPYLR7 ag max-min
> O=C(NCCc1cccc(F)c1)C(=O)c1ccc(C2CCCCC2)cc1
→ -9, -17
> CCCCC(CC)COc1ccc(-c2nc(-c3ccc(OC)cc3)nc(-c3ccc(OCC(CC)CCCC)cc3O)n2)c(O)c1 (stereo unspecified)
→ 6, 9
> O=C(CSc1nnc(Nc2cccc(F)c2)s1)N1CCOCC1
→ 11, 6
> CC(C)[C@@H](CO)Nc1nccc2[nH]c(-c3ccc(F)c(F)c3)nc12
→ -2, -9
> COc1cccc(Cn2c(=O)n(Cc3ccccc3)c(=O)c3c2c2cc(OC)ccc2n3C)c1
→ -4, -7
> O=C(Nc1ccccc1)C1CC1Cc1ccccc1 (stereo unspecified)
→ -3, -7
> CC(C)CN(Cc1cccc(OS(=O)(=O)c2cccc(C(F)(F)F)c2)c1)C(=O)NCc1ccccc1
→ -8, 1
> COc1ccc(OC)c2sc(N(Cc3ccncc3)C(=O)CCc3ccccc3)nc12
→ -3, -8
> CC(=O)c1ccc(S(=O)(=O)N2CCN(c3ccc(NC(=O)c4ccccc4F)cn3)CC2)cc1
→ 32, 31
> O=C(c1ccc([N+](=O)[O-])cc1)N1CCCC(OCc2cccc(Cl)c2)C1 (stereo unspecified)
→ -1, 0
> COc1ccc(C2CC(=O)C3C(=Nc4ccccc4NC3c3cccnc3)C2)cc1 (stereo unspecified)
→ -3, -8
> OC(CN1CCNCC1)c1cccs1 (stereo unspecified)
→ -4, 4
> C=CCN(Cc1ccc(Cl)s1)C(=O)C(C)Oc1ccc(C#N)cc1 (stereo unspecified)
→ 1, 1
> Cc1cc(C2=NNC(=CSc3nc4ccc(Cl)cc4[nH]3)O2)c(C)o1
→ 2, 4
> CCN1CCc2c(sc(NC(=O)c3ccc([N+](=O)[O-])cc3)c2-c2nc3ccccc3s2)C1
→ -2, -2

The last 3 entries of the part before come first, to join the parts.
Each structure is followed by: NPYLR7 ag, NPYLR7 ag max-min
> C=CCN(Cc1ccc(Cl)s1)C(=O)C(C)Oc1ccc(C#N)cc1 (stereo unspecified)
→ 1, 1
> Cc1cc(C2=NNC(=CSc3nc4ccc(Cl)cc4[nH]3)O2)c(C)o1
→ 2, 4
> CCN1CCc2c(sc(NC(=O)c3ccc([N+](=O)[O-])cc3)c2-c2nc3ccccc3s2)C1
→ -2, -2
> CC(c1ccccc1)n1c(-c2nccc3ccccc23)n[nH]c1=S (stereo unspecified)
→ -1, -8
> Cc1cnc(CNC(=O)NC2COc3c2ccc(C)c3C)s1 (stereo unspecified)
→ -1, 25
> O=C(CNC(=O)c1ccc(N2CCCC2=O)cc1)NCC12CC3CC(CC(C3)C1)C2
→ 9, 2
> COc1cccc(-n2nc(C(=O)NCC3CCCO3)c(=O)n(Cc3ccc(F)cc3)c2=O)c1 (stereo unspecified)
→ 16, 20
> CC(C)C(NC(=O)c1ccc2c(c1)S(=O)(=O)N=C1CCCCCN12)c1ccccc1 (stereo unspecified)
→ -1, 4
> Cc1ccc(S(=O)(=O)c2cnc(SCC(=O)NCCc3ccccc3)[nH]c2=O)cc1Cl
→ 1, -10
> Cc1cc(C(=O)Cn2cc(C(F)(F)F)ccc2=O)c(C)n1C(C)C
→ 0, 12
> CCCc1[nH]n(-c2ccc(F)cc2)c(=O)c1C1=C([n+]2ccccc2)C(=O)N(C2CCCCC2)C1=O
→ 3, 14
> CC(C)Nc1nc(-c2ccco2)nc2cc(Cl)ccc12
→ -3, 4
> COCCCn1c(CCC(=O)O)ccc1-c1ccc(F)cc1
→ -8, -15
> CCOc1ccccc1N=Nc1c(C)[nH]n(-c2ccccc2)c1=O
→ -2, -8
> COc1ccc(/C=C2/NC(=S)NC2=O)cc1Br
→ 4, 14
> CSc1nnc(COc2cccc(C)c2)o1
→ 18, 9
> O=C(NCCN1CCCC1)[C@@]1(OCc2cccc(C(F)(F)F)c2)CC(OCc2cccc(Cl)c2)[C@H](O)[C@H](O)C1 (stereo partly specified)
→ 5, 15
> COC(=O)C1C(=O)CSC1=Nc1ccccc1OC (stereo unspecified)
→ -2, 9

For reference, 3 of the compounds above:
Each structure is followed by: NPYLR7 ag, NPYLR7 ag max-min
> CSc1nnc(COc2cccc(C)c2)o1
→ 18, 9
> O=C(NCCN1CCCC1)[C@@]1(OCc2cccc(C(F)(F)F)c2)CC(OCc2cccc(Cl)c2)[C@H](O)[C@H](O)C1 (stereo partly specified)
→ 5, 15
> COC(=O)C1C(=O)CSC1=Nc1ccccc1OC (stereo unspecified)
→ -2, 9

Additional results:
Each structure is followed by: NPYLR7 ag, NPYLR7 ag max-min
> CC1(C)CN(c2ccnc(C(=O)NCc3ccc4c(c3)OCO4)c2)CCO1
→ 7, 1
> CC1C(=O)N(c2ccc(Cl)cc2Cl)CCN1S(=O)(=O)c1ccccc1 (stereo unspecified)
→ 3, 5
> CC(NS(=O)(=O)c1cccc(C#N)c1)c1cccc(Cl)c1 (stereo unspecified)
→ -18, -21
> Cn1c(=O)c2c(SCc3cccnc3)ccnc2n(C)c1=O
→ 7, 11
> CCC(C)NC(=O)CSc1ncc(-c2ccc(F)cc2)[nH]1 (stereo unspecified)
→ 4, 2
> COc1ccc(NC(=O)N(CCN2CCOCC2)CC(=O)N(Cc2ccc3c(c2)OCO3)Cc2ccc(C)o2)c(OC)c1
→ 10, 10
> CCC(=O)N1CCCC1C1CCCN1C1CCOC1=O (stereo unspecified)
→ 1, -1
> COc1cccc2c1OC1(C)CC2C(S(=O)(=O)c2ccc(C)c(C)c2)C(=O)N1 (stereo unspecified)
→ 0, 3
> O=C(NC(c1ccc(F)cc1)c1cnccn1)C1CCN(CCOc2ccc(Cl)cc2Cl)CC1 (stereo unspecified)
→ 11, -3
> Cc1ccc2[nH]c(=O)c(CN3CCCCC3)c(-c3ccccc3)c2c1
→ -5, -8
> Nc1nc(-c2ccc(Cl)cc2)cc(C(F)(F)F)n1
→ 14, 7
> Cc1ccc(C)c(-n2nnnc2SCCCC(=O)c2cccs2)c1
→ 4, 1
> Cc1cc(F)ccc1NC(=O)C(C)NC(=O)COc1cccnc1 (stereo unspecified)
→ 5, 2
> COc1cn(CC(=O)N2CCc3ccccc32)c(CSc2nc(C)cc(C)n2)cc1=O
→ -9, -15
> Cc1cc(C(=O)NCCn2nc(-c3cccs3)n(C)c2=O)c(C)o1
→ 3, -1
> O=C(Nc1ccccc1)NC1CCN(c2ccccc2C(=O)NC2CC2)CC1
→ -2, 3
> Cc1ccc(-n2ncc3c(=O)n(NC(=O)CSCc4ccccc4)cnc32)cc1
→ 4, 5
> CCOC(=O)/C(=N/O)C1=NC(C)(C)C(C)c2ccccc21 (stereo unspecified)
→ 4, 2
> Cc1cccc(N(CCC#N)S(=O)(=O)c2c[nH]c3ncccc23)c1
→ 2, 7
> COc1cc(/C=C/C(=O)/C=C(O)/C=C/c2ccc(O)c(OC)c2)ccc1O
→ 11, 13
> CN(C)S(=O)(=O)c1ccc(CNc2cc(F)ccc2Cl)o1
→ -6&0, -7&-3
> S=c1nc2ccccc2c2[nH]c3ccccc3n12
→ 4, 3
> Cc1nc2ccc(C(=O)N3CCC4(CC3)Nc3ccccc3C(=O)N4CCO)cc2[nH]1
→ 0, 12
> CC(Cn1cncn1)C(=O)Nc1ccccc1Br (stereo unspecified)
→ 4, 4
> CCOC(=O)CN(C(=O)Cc1cccc(OC)c1)[C@@H]1C[C@@H]2CO[C@H](C(C)C)C[C@@H]2C1
→ 9, 12
> OC1CCN(Cc2ncc(-c3ccccc3)o2)CC1
→ 14, 9
> COCCN(CC(=O)N(Cc1ccccc1)Cc1sccc1C)C(=O)Nc1cccc(C(F)(F)F)c1
→ 15, 18
> CCN(Cc1ccc(OC)c(F)c1)C(=O)c1ccc(=O)[nH]c1
→ 1, -1
> O=S(=O)(NC1c2cccc3cccc(c23)C1Sc1ncccn1)c1ccccc1 (stereo unspecified)
→ 4, 4
> CCn1c(C2CCN(Cc3cccc4nonc34)CC2)n[nH]c1=O
→ -1, -7

Following part:
structure	NPYLR7 ag	NPYLR7 ag max-min
COCCn1nc(C)c(CNc2snc(Cl)c2C#N)c1C	9	5
C=CCNCC(=O)N1CCc2sccc2C1c1ccc(OC)cc1 (stereo unspecified)	-7	1
CCc1cccc(N2C(=O)CSC2c2ccc(NC(=O)Cc3cccs3)cc2)c1 (stereo unspecified)	-6	11
O=C1c2ccccc2C(=O)c2cc(S(=O)(=O)Nc3cccc4cccnc34)ccc21	13	13
CC1(C)SC(=S)N(N)C1N(O)C(=O)Nc1ccccc1 (stereo unspecified)	2	2
COCCn1c(SCC(=O)Nc2cc(C)ccc2C)nc2c([nH]c3ccccc32)c1=O	-1	-2
Cc1[nH]n(-c2nc(-c3ccc(Br)cc3)cs2)c(=O)c1N=Nc1ccccc1Br	-6	-10
O=C(CN1CCN(C2CC(=O)N(Cc3ccc(Cl)cc3)C2=O)CC1)NC1CC1 (stereo unspecified)	3	0
CN(C(=O)CNC(=O)C1CC1(c1ccccc1)c1ccccc1)C(c1ccccc1)c1ccccc1 (stereo unspecified)	-2	-8
COCC(C)(C)CNC(=O)[C@H](N)c1ccccc1	-6	-9
CC1(C)C2CC=C(C=NNC(N)=S)C1C2 (stereo unspecified)	23	22
CN(C)c1nc(N)nc(CCNS(=O)(=O)c2ccc3c(c2)oc(=O)n3C)n1	-3	-5
CCN(CCN1C(=O)CSC1c1ccccc1C)C(=O)c1cccc(F)c1 (stereo unspecified)	-4	-1
CC1Cc2cc(/C=C3/C(=O)NN(c4cc(Cl)cc(Cl)c4)C3=O)ccc2O1 (stereo unspecified)	1	2
O=C(Cn1c(=O)cnc2ccccc21)Nc1nc(-c2ccc3c(c2)CCO3)cs1	8	5
Cc1ccc2c(c1)c(=O)c(C(=O)N(C)Cc1csc(C)n1)cn2C	9	4
Cc1ccc(S(=O)(=O)NC(=O)C2(C)CCN2C(=O)c2ccc(C3CCCCC3)cc2)nc1 (stereo unspecified)	-1	-2
COc1ccc(NC(=O)COc2ccccc2[C@H]2c3sc(=O)[nH]c3SC3C4CCC(C4)C32)cc1 (stereo partly specified)	14	10
CC(=O)N1N=C(c2ccc(Br)cc2)CC1c1cn(-c2ccccc2)nc1C (stereo unspecified)	-3	0
COc1cc(F)ccc1-c1c(-c2ccccc2)ncn1CCN1CCN(C)CC1	15	5
CN(C)c1ccc(NC(=O)CN2C(=O)c3ccccc3C2=O)cc1	18	15
Cc1[nH]n(-c2ccccc2)c(=O)c1N=Nc1cccc(OC(F)F)c1	3	-3
CN(C)c1nc2c(c(=O)[nH]1)CCN(C(=O)C(c1ccccc1)c1ccccc1)C2	16	10
CN(C)CCCn1c2c(c(SCC(=O)Nc3cccc(C(F)(F)F)c3)nc1=O)CCC2	-1	-5
O=C(CSc1nnc(-c2nccc3ccccc23)o1)c1ccc(C(F)(F)F)cc1	2	-4
CCN(CC)C(=O)Oc1ccc2c(ccn2Cc2cccc(C)c2)c1NS(=O)(=O)c1ccccc1C	3	0
O=S(=O)(NCc1ccccc1)N1CCCOC(CN2CCCC2)C1 (stereo unspecified)	1	-4
Nc1ncc(CN2CCCC(CNC(=O)c3ccc(-c4ccccc4)cc3)C2)cn1 (stereo unspecified)	4	5
CC1CC1C(=O)NCc1ccc(S(=O)(=O)N2CCOCC2)cc1 (stereo unspecified)	-14	-14
CCCC(=O)NCc1ccc2c(c1)cc(C)n2C	8	2

4 entries drawn at random from those above:
structure	NPYLR7 ag	NPYLR7 ag max-min
O=C1c2ccccc2C(=O)c2cc(S(=O)(=O)Nc3cccc4cccnc34)ccc21	13	13
Cc1[nH]n(-c2ccccc2)c(=O)c1N=Nc1cccc(OC(F)F)c1	3	-3
Cc1nc2ccc(C(=O)N3CCC4(CC3)Nc3ccccc3C(=O)N4CCO)cc2[nH]1	0	12
CCCc1[nH]n(-c2ccc(F)cc2)c(=O)c1C1=C([n+]2ccccc2)C(=O)N(C2CCCCC2)C1=O	3	14

Next section.
structure	NPYLR7 ag	NPYLR7 ag max-min
Cc1nc(CCNC2CCN(S(C)(=O)=O)CC2)nc2c1CCCC2	5	4
O=C(c1cnc2ccccn12)N1CCc2c(nc(-c3ccccn3)[nH]c2=O)C1	9	8
CCOC(=O)CSc1nnc(CCc2c(C)[nH]c(=O)[nH]c2=O)o1	-6	-11
COc1cc(NC(=O)Nc2c(C)nc3ccccn3c2=O)cc(OC)c1OC	-1	-2
N#CCN(CC#N)S(=O)(=O)c1ccccc1	2	-1
CC(C)O[C@H]1CN(c2nc(-c3ccccc3)nc3c2CCC3)C[C@@H]1O	-1	-2
COc1cc(CCC(=O)NCc2ccc(F)cc2)cc(OC)c1	15	6
COc1cc(C(=O)Nc2cccc(-c3nc4cc(C)ccc4o3)c2)cc(OC)c1OC	-1	8
COCC(=O)N(CCC(C)C)Cc1c(C)nn(-c2cccc(F)c2)c1N1CCN(C)CC1	4	19
O=C(Nc1cccc2ccccc12)c1ccc2c(c1)OCO2	18	4
Fc1cc(Br)ccc1NC(=S)NCC1CCCO1 (stereo unspecified)	-6	-6
Cc1cnccc1C(=O)N1CCc2c(c(C(=O)O)nn2CCN(C)C)C1	0	1
COc1cccc(-c2nn(-c3ccc(C)cc3)cc2C(=O)N(C)C)c1	19	11
O=c1c(=O)n2c(nn1C/C=C/c1ccccc1)N(c1ccc(F)cc1)CC2	15	7
Fc1ccc(C(NCC2CCCCO2)C2CC2)cc1 (stereo unspecified)	0	-3
Fc1ccccc1Cc1noc(CN2CCCN(Cc3ccccc3F)CC2)n1	4&7	6&6
CC(C)C(C)N(Cc1ccco1)C(=O)c1cnc2ccccn12 (stereo unspecified)	1	-4
O=C(NCc1ccccn1)c1cc(=O)c(OCc2ccccc2)co1	-1	-2
Nc1ncc([N+](=O)[O-])c(Sc2nc3ccccc3s2)n1	1	-3
